# FGF22 binding: FGF22 (human) thermal shift binding | recombinant FGF22 thermal shift, SYPRO orange fluorescence; percent of sucrose octasulfate shift, DMSO zero | calls only at 9.99 µM | 340,000 tested, 1.5% active | AID 651658;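 active = melting point raised past a set limit in the mean and every replicate; inconclusive = no clear call; three in four hits are not shown here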
# Target sequence (Q9HCT0 whole entry, looked up): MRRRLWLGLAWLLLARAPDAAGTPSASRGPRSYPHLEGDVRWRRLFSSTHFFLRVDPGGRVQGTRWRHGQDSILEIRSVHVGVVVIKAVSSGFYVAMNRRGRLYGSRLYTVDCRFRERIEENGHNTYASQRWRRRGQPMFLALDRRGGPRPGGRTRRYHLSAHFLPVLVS
# rRNA inh HTS: inhibits bacterial ribosomal RNA function over humanized ribosomes. GFP signal change (wild-type ribosome), % (concentration not given with the values). 350,000 tested, 1.6% active. AID 720706. E. coli WT GFP vs humanized-ribosome RFP mutants, fluorescence, 24 h; hits give low values; DMSO median 0, no signal -100;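 active = significant combined selectivity score with lowered wild-type GFP, culture density cut under 30%, mutant RFP and density less affected; inactive = any of these conditions unmet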; also: one replicate is shown; some compounds called inactive have numbers as strong as hits
# ALR inh: blocks human ALR sulfhydryl oxidase activity. purified ALR, DTT oxidation, H2O2 HRP-luminol luminescence. inhibition, % (concentration not given with the values). 290,000 tested, 3.8% active. AID 485317;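 active = mean and each replicate at 75% or more; inconclusive = only one of the two met; inactive = neither met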;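 also: stock transfer was 7.5 nL into about 7.5 µL; 0% = neutral wells and 100% = wells with inactivated enzyme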
# Target sequence (P55789 whole entry, looked up): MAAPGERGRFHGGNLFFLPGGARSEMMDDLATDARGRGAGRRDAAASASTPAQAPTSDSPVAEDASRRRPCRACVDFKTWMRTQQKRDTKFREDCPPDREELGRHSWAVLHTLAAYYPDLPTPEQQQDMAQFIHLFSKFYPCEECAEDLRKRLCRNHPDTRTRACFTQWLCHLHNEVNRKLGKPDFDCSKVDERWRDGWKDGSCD
# T cruzi repl: blocks replication of Trypanosoma cruzi | T. cruzi beta-gal in NIH3T3, luminescence, 90 h | inhibition, % (concentration not given with the values) | 300,000 tested, 1.4% active | AID 1885;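 active = mean inhibition across valid replicates above about 55%, limit read from the data; inconclusive = mean below that limit but half or more replicates reach it; inactive = mean below it, under half of replicates reach it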;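 also: signal also drops with host cell toxicity which is not excluded here; 0% = plate median of DMSO wells and 100% = zero luminescence signal; higher percent means less beta-gal luminescence so fewer parasites; stock transfer was 50 nL into about 50 µL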
# Beta apoptosis: blocks beta cell apoptosis. protection from apoptosis, % (concentration not given with the values). AID 435005. INS-1E cytokine-induced death, ATP luminescence, 48 h; percent of positive-control rescue, neutral wells zero. 300,000 tested, 0.8% active;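 active = all replicates at 75% or more, or half of them and the mean; inconclusive = half reach 75% but not the mean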;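 also: 0% = cytokine-treated negative control wells and 100% = positive control rescue; higher means more ATP so stronger rescue from cytokine killing; wells of about 40 µL received 100 nL stock; the first replicate is given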
# Calb FLC: C. albicans growth modulation with fluconazole. AID 1979. C. albicans CaCi-2 (fluconazole-resistant clinical isolate) + fluconazole, Alamar Blue growth, 48 h. growth inhibition, % (test concentration not listed). 300,000 tested, 0.57% active;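 active = most replicates above 75%; inconclusive = exactly half above 75%; inactive = most below 75%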;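 also: all wells also contain fluconazole at 8 µg/ml as a sub-toxic cotreatment; 0% = median of DMSO wells and 100% = median of geldanamycin control wells; wells of about 8 µL received 7.5 nL stock; the first replicate is given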
# RanGTP-Imp inh: inhibitors of RanGTP-importin-beta interaction, primary screen, biochemical, FRET, CFP-Ran, YFP-importin-beta, homogeneous; AID 2216; cell-free CFP-Ran/YFP-importin-beta FRET ratio; 300,000 tested, 1.1% active; inhibition, % (no concentration beside the values);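 active = most replicates above 15%; inconclusive = exactly half above 15%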;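 also: 0% = DMSO wells and 100% = Ran loaded with GDP instead of GTP; wells of about 40 µL received 100 nL stock; the first replicate is given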
# AF4-AF9 inh: blocks AF4 peptide binding to human AF9 | 350,000 tested, 0.47% active | P42568 | AID 651704 | inhibition, % at 10 µM | AlphaScreen, biotin-AF4 peptide binding to FLAG-AF9;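 active = every replicate reaching a set inhibition limit, whatever the replicate mean, cut at about 25% in these data; inconclusive = mean inhibition reaches that limit but some replicates miss it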;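 also: 0% = plate neutral control median and 100% = total signal loss; the record names both 10 and 1 µM as test concentration; the first replicate is given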
# Target sequence (P42568 whole entry, looked up): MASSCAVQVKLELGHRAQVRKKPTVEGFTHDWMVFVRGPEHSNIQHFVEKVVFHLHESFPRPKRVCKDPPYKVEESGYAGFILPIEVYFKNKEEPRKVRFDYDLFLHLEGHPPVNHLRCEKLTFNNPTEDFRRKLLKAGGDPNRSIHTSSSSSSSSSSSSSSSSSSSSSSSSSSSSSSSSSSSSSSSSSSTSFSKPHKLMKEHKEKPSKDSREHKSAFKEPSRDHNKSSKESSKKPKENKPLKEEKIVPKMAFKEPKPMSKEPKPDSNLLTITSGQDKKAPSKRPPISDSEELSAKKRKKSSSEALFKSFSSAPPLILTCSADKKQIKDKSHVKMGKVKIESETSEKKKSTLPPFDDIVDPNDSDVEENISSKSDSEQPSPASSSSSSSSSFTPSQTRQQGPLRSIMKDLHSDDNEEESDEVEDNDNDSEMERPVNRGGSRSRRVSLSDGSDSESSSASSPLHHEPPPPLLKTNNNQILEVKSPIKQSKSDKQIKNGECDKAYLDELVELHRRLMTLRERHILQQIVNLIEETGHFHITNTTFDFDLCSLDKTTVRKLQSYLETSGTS
# rRNA inh HTS OD600: second read-out of rRNA inh HTS, no call of its own (marks repeat the call); OD600 change, %; measured here: OD600 growth;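 optical density of the mix in the first replicate; 0 = DMSO median and -100 = no signal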
# rRNA inh HTS RFP: also measured in rRNA inh HTS; calls as there; RFP signal change, %; measured here: RFP humanized mutant strains;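 first replicate; 0 = DMSO median and -100 = no signal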
# * = called active by the depositor; i = inactive; ? = inconclusive; . = not tested or not shown; & = joins results of further samples.
SMILES,FGF22 binding,rRNA inh HTS,rRNA inh HTS OD600,rRNA inh HTS RFP,ALR inh,T cruzi repl,Beta apoptosis,Calb FLC,RanGTP-Imp inh,AF4-AF9 inh
O=C(O)CCc1ccc(-c2cccs2)n1NC(=O)c1ccccc1Br,.,.,.,.,98.9*,-18.0,0.3,?,-2.0,.
CCCCC(CC)C(=O)Nc1cc(=O)[nH]c2nc3ccccc3n12 (stereo not drawn),i,10.8,12.1,0.2,-21.5,-11.4,-0.2,33.3,?,-1.1
CCN1CCN(S(=O)(=O)c2cc(OC)ccc2OC)CC1,.,.,.,.,-14.7,-2.9,-2.1,12.2,5.0,.
Cc1n[nH]c(=O)c2c(NC(=O)CSc3nnnn3-c3ccc(O)cc3)oc(C)c12,i,3.9,11.5,-3.1,-14.1,-0.5,1.5,.,-2.0,0.1
NC(=O)COc1ccc2oc(=O)cc(-c3cc4ccccc4o3)c2c1,i,3.7,16.9,0.5,.,-20.0,-0.9,15.9,-0.9,-3.2
COc1cccc(OCCOCCN(C)CCO)c1,.,.,.,.,-1.2,10.3,-2.3,-4.5,1.3,.
Fc1ccc(-c2nnc(Cc3ccc(Cl)cc3)o2)cc1,i,-7.0,-0.5,2.1,.,1.8,-10.1,-0.4,-4.0,-3.5
CC1(C)NC(=O)N(CCOCCOc2ccccc2-c2ccccc2)C1=O,i,-20.8,-31.0,-7.4,-6.5,-9.4,-1.5,-6.4,-0.7,-0.9
CCCCN(CCCC)c1ccc(C(=O)c2ccccc2C(=O)O)c(O)c1,.,-10.8,2.6,-2.3,89.8*,-0.5,8.7,6.0,2.2,-5.5
COc1ccc(-n2nc(C(=O)NCC(=O)NCCc3ccc(OC)c(OC)c3)c3ccccc3c2=O)cc1,i,-9.6,-6.5,-3.5,-3.4,0.1,1.2,0.8,0.2,1.3
Cc1coc2cc3oc(=O)c(CC(=O)N(C)CC(=O)O)c(C)c3cc12,i,-2.7,1.1,0.5,.,-4.2,-14.0,1.0,-1.8,0.9
CCOc1nnnc2c1sc1nc(N3CCOCC3)c3c(c12)CCCC3,.,.,.,.,.,20.0,-7.7,3.7,-0.8,.
Cc1[nH]n(-c2ccccc2)c(=S)c1C=Nc1ccc([N+](=O)[O-])cc1,i,-0.2,-3.3,-5.4,.,.,-5.0,.,.,-1.1
CC(C)(C)c1ccc(C(CC(=O)O)NC(=O)C23CC4CC(CC(C4)C2)C3)cc1 (stereo not drawn),i,-4.5,-3.9,0.8,.,-7.9,-5.7,-8.5,-1.8,-0.6
CCN=C(Nc1cccc(F)c1)SC1CC(=O)N(c2ccc(OC)cc2)C1=O (stereo not drawn),i,0.7,1.8,1.5,8.0,7.6,-9.1,-2.5,-2.6,-10.0
Cc1ccc(NC(=O)C2CCN(S(=O)(=O)c3cccc4nonc34)CC2)cc1,.,1.4,7.6,-2.2,-2.7,3.1,0.9,3.1,-4.8,0.7
COc1ccc(C(=O)O)cc1S(=O)(=O)Nc1ccc(N2CCCCC2)cc1,i,3.9,23.0,-2.7,96.2*,.,-6.7,.,.,-2.8
CC(=O)c1cc(CCC(=O)NC2CCCCCC2)oc1C,i,6.1,11.0,-2.0,2.0,-0.4,-0.5,-3.0,-0.7,3.2
COc1ccc(Br)cc1/C=N/NC(=O)CNC(=O)c1cccnc1,i,2.3,6.0,-2.7,6.6,-3.5,3.9,-1.5,5.6,-4.3
CC(=O)Nc1ccc(S(=O)(=O)NCC2CCC(C(=O)N3CCN(c4ccccn4)CC3)CC2)cc1 (stereo not drawn),.,.,.,.,2.1,-6.1,-1.3,0.7,0.6,.
COc1cc(OC)cc(C(=O)N[C@H](C(=O)Nc2ccccc2N2CCOCC2)C(C)C)c1,.,.,.,.,-62.3,4.6,0.8,12.4,-0.7,.
COC(=O)c1ccc(CSc2nc3ccccc3[nH]2)o1,.,.,.,.,21.6,1.5,3.0,5.0,-2.4,.
COc1ccc(COC(=O)CCc2c[nH]c3ccccc23)cc1F,i,-45.5,-55.9,5.4,-1.1,2.1,-3.7,4.7,4.3,-0.7
CC1=C(C(N)=O)C(c2ccc(Br)cc2)n2ncnc2N1 (stereo not drawn),i,-0.9,10.9,3.0,-3.3,-11.1,-2.4,0.7,-2.0,0.1
CNc1c(NC(=O)C2CCC(C)CC2)c(=O)oc2ccccc12 (stereo not drawn),i,-4.8,12.7,-1.2,.,-3.8,5.5,-27.4,?,7.3
COc1ccc(CNC(=O)c2noc3c2CCCCC3)cc1,.,.,.,.,0.7,-11.0,-2.8,-7.9,?,.
Cc1ccc(N2C(=O)CC(c3ccsc3)C3=C2CC(C)(C)CC3=O)cc1 (stereo not drawn),.,.,.,.,.,1.0,-2.5,0.4,-5.4,.
NS(=O)(=O)c1ccc(CCNC(=O)CN2C(=O)COc3ccc(S(=O)(=O)N4CCCC4)cc32)cc1,i,10.9,9.5,0.1,-2.4,-3.5,-1.6,0.4,1.1,-3.4
Cc1ccc(N2CCN(S(=O)(=O)c3ccc4c(c3)oc(=O)n4C)CC2C)cc1 (stereo not drawn),i,-1.4,-1.5,-0.9,6.0,5.9,-1.5,6.7,?,1.0
CCn1c(=O)n(CC(=O)N2CCN(c3ccccc3F)CC2)c(=O)c2ccccc21,.,.,.,.,4.1,8.3,.,?,-2.2,.
COc1cc(/C=C2\SC(=S)N(N(C)c3ccccc3)C2=O)ccc1O,i,11.6,-3.4,14.3,16.3,-4.1,10.2,1.0,-5.4,5.9
COc1ccc(/C(O)=C2/C(=O)C(=O)N(CCN(C)C)C2c2ccc(OC)c(OC)c2)c(C)c1 (stereo not drawn),.,.,.,.,-3.3,-8.2,-4.4,-0.1,?,.
Cc1cccc(NC(=S)Nc2ccc3cn[nH]c3c2)c1,i,-6.0,-3.4,-3.7,7.1,-11.4,124.4*,7.6,5.7,-1.7
CCCCCCCCN1C(=O)C(O)=C(C(C)=O)C1c1ccccn1 (stereo not drawn),.,.,.,.,-2.5,10.3,.,-8.0,5.1,.
O=C(c1ccccc1)C1CCN(C(=O)Nc2ccccc2)CC1,i,3.6,-0.9,-1.0,.,-3.8,1.2,6.3,-0.6,0.9
Cc1ccc(N(CC(=O)N2CCCCCC2)S(C)(=O)=O)cc1Cl,i,1.8,5.1,-4.5,-12.1,-10.8,-0.5,-13.4,-4.0,-0.9
CCN(CC)C1=C(Cl)C(=O)C(Cl)C12OCCO2 (stereo not drawn),i,9.7,24.0,0.4,-3.2,-11.7,.,-4.2,-1.0,-4.0
COc1ccc(S(=O)(=O)N2CCCCCC2)cc1C(=O)N(C)CC(=O)Nc1ccc(Cl)c(Cl)c1,i,-3.5,-14.4,-0.5,-1.5,3.2,3.2,1.3,-4.2,-0.1
CCN(CC(=O)NCc1ccc(F)cc1)C(=O)Cc1ccc(OC)cc1,i,0.4,3.0,-0.6,-8.1,1.5,-5.6,-1.3,-1.0,0.4
CCOc1ccc2nc(NC(NC(=O)CC)(C(=O)OC)C(F)(F)F)sc2c1 (stereo not drawn),.,.,.,.,1.7,-3.5,3.4,7.2,-0.2,.
COc1cc(OC)c(NC(=O)CCc2nc(-c3cccs3)no2)cc1Cl,.,.,.,.,-9.1,5.7,-2.6,-0.3,-4.5,.
CN1C(=O)Cc2cc(S(=O)(=O)Nc3ccc(Cl)cc3)ccc21,i,-3.9,-13.6,4.5,6.9,7.8,2.8,-6.5,5.3,-1.2
COc1cccc(C(=O)NN2c3ccccc3CCc3ccccc32)c1,i,10.4,8.6,-15.2,6.0,1.5,-2.4,-11.1,2.4,5.8
O=C(Nc1cccc(C(=O)O)c1)/C(=C\c1ccccc1Cl)NC(=O)c1ccco1,i,5.9,-1.4,-2.3,.,-9.0,-0.2,-12.7,1.1,-2.0
O=C(NCc1ccc2c(c1)OCO2)Nc1ccc2nsnc2c1,i,8.3,12.8,1.1,-6.3,-0.9,.,1.9,-1.1,-0.7
O=C(N/N=C/c1ccccn1)c1ccc(N/N=C/c2ccccn2)cc1,i,17.8,7.3,4.0,99.2*,-29.4,3.3,-5.5,-2.0,-0.7
CC(=O)c1ccc(NC(=O)c2ccc(-n3cncn3)c([N+](=O)[O-])c2)cc1,i,6.3,8.5,-1.4,-7.8,0.6,2.1,-16.7,0.1,-2.3
CCOC(=O)c1sc(-c2ccccn2)nc1C,i,1.5,13.4,-0.9,-0.5,-23.7,-2.2,-3.1,0.7,-2.1
O=C(OCC(=O)N1CCOCC1)c1ccccc1SCC(=O)N1CCCC1,.,.,.,.,-7.3,-12.6,-3.5,20.4,3.5,.
O=C(C1=C[C@H](c2ccc(C(F)(F)F)cc2)C[C@H](OCc2ccc(CO)cc2)O1)N1CCOCC1,i,12.7,12.9,4.2,-9.2,13.7,4.6,14.8,2.0,-1.9&-11.3
Cc1ccc(C(C)C)c(OCc2ccc(C(=O)N/N=C/c3ccc(O)cc3O)cc2)c1,i,.,.,.,49.6,33.3,116.5*,1.4,?,9.5
COC(=O)c1cc(NS(=O)(=O)c2ccc(NC(C)=O)cc2)ccc1Cl,i,-8.3,-9.8,-5.2,-5.7,-13.5,-6.0,5.9,4.2,7.4
CC(=O)c1c(N2CCCCC2)nc(=O)n(-c2ccccc2)c1C,.,.,.,.,.,-1.7,-9.9,4.2,6.8,.
O=c1c(Cc2ccc(F)cc2)c(O)ccn1Cc1ccco1,i,3.0,8.4,1.4,-4.9,-10.7,-2.6,9.6,0.9,-1.4
O=C(Cn1cnc2ccccc2c1=O)N1CCN(c2ccccc2)CC1,.,.,.,.,11.9,0.2,-2.5,10.7,2.0,.
CN1CCN(CCCNC(=O)c2ccc3c(Cl)c4c(nc3c2)CCCC4)CC1,i,0.1,-4.2,5.7,2.9,2.3,-1.4,3.3,1.2,4.1
COc1ccc(CNc2ncnc3cc(OC)c(OC)cc23)cc1OC,i,-16.9*,-5.6*,3.9*,-0.5,1.6,-4.0,1.4,-1.8,1.7
CCOCCCNC(=O)c1ccccc1SCC,.,.,.,.,0.0,0.4,-4.5,-0.9,-1.6,.
Cn1c(CN(O)S(=O)(=O)c2ccc(Cl)cc2)nnc1C(F)(F)F,i,11.2,11.2,4.3,6.3,-1.0,-0.2,1.4,-3.7,-2.6
COc1ccc2c(c1)-c1nc(NC(=O)c3ccco3)sc1CC2,.,.,.,.,-26.8,3.3,3.1,-70.2,2.9,.
COC(=O)c1ccc(NC(=O)Nc2ccc(F)cc2F)cc1,i,-0.4,-1.9,0.3,-2.4,-11.6,0.1,-17.5,.,-1.9

# 2 of the compounds above, with two lines to a compound:
# Each structure is followed by: FGF22 binding	rRNA inh HTS	rRNA inh HTS OD600	rRNA inh HTS RFP	ALR inh	T cruzi repl	Beta apoptosis	Calb FLC	RanGTP-Imp inh	AF4-AF9 inh
O=C(C1=C[C@H](c2ccc(C(F)(F)F)cc2)C[C@H](OCc2ccc(CO)cc2)O1)N1CCOCC1
 : i	12.7	12.9	4.2	-9.2	13.7	4.6	14.8	2.0	-1.9&-11.3
Cc1ccc(C(C)C)c(OCc2ccc(C(=O)N/N=C/c3ccc(O)cc3O)cc2)c1
 : i	.	.	.	49.6	33.3	116.5*	1.4	?	9.5

# Compound activity deposited in PubChem by Broad Institute.

# The list is partial. The share of hits here may be higher or lower than overall.
